FPRL1 ligand – human FPRL1 ligand, with FPR counter-screen. 24,000 compounds, 0.3% hits. P25090. FPRL1-expressing cells, fluorescent ligand binding inhibition, flow cytometry. inhibition, %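 (tested at 6.7 µM)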;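 further: 0% = buffer alone and 100% = receptor blocker peptide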
Target sequence (P25090 whole entry, looked up): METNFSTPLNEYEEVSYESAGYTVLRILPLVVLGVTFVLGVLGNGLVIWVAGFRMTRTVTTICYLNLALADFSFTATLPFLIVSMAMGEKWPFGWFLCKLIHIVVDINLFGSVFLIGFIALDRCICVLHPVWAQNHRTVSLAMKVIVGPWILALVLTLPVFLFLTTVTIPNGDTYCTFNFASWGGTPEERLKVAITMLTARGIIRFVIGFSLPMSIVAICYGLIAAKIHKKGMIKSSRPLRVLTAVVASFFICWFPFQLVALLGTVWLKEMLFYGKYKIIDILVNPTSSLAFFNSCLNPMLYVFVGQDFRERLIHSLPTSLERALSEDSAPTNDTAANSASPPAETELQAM
VCAM-1 down imaging – inhibitors of TNFa-induced VCAM-1 surface display, imaging, high-content imaging, pooled HUVEC, TNFa stimulus (AID 456). inhibition, % at 5 µM, or IC50 in µM where a hit was titrated. 10,000 compounds, 0.2% hits. HUVEC TNFa-induced VCAM-1 surface expression, immunofluorescence imaging; numbers were filed only for top-ranked candidate wells;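 active means top tenth filtered wells with inhibition above zero that passed visual or statistical confirmation; inactive means the rest, including hits rejected on review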;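 further: 0% = stimulated vehicle wells and 100% = unstimulated cells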
FPR ligand – human FPR ligand, with FPRL1 counter-screen; inhibition, %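 (tested at 6.7 µM)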; P21462; 24,000 compounds, 0.74% hits; FPR-expressing cells, fluorescent ligand binding, flow cytometry;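 further: 0% = buffer wells and 100% = receptor blocker peptide wells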
Target sequence (P21462 whole entry, looked up): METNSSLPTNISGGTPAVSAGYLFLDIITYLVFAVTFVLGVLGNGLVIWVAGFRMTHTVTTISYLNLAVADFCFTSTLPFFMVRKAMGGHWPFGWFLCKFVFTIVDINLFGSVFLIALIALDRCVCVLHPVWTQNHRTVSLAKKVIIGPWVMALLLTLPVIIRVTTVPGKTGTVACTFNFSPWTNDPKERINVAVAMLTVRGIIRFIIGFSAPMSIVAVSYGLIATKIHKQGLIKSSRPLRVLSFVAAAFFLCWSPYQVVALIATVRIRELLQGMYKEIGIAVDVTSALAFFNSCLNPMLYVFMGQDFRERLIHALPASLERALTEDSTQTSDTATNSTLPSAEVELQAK
VCAM-1 down – suppression of endothelial VCAM-1 upregulation – cell-based, plate reader, pooled HUVEC, TNFa stimulus (AID 454); 10,000 compounds, 0.2% hits; HUVEC TNFa-induced VCAM-1 surface immunofluorescence, plate reader; numbers were filed only for top-ranked candidate wells; inhibition, % at 5 µM;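 active means compound among top-ranked inhibitors of TNF-induced VCAM-1 adhesion protein staining, with the hit upheld by image or statistical review; inactive means the rest, including hits rejected on review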;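 further: 0% = TNFa with vehicle and 100% = cells without TNFa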
VCAM-1 up imaging – boosters of cytokine-driven VCAM-1 levels – imaging, high-content imaging, pooled HUVEC, TNFa stimulus (AID 457); Pooled HUVEC, TNFa-induced VCAM-1 immunofluorescence imaging; hits of this screen are not shown here; calls only; 10,000 compounds, 0.2% hits;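 active means a top-ranked rise in VCAM-1 staining upheld on image or statistical review; inactive means the rest, including candidates rejected on review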;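 further: compounds tested at 5 µM in the well; cells exposed to compound for 24 hours before fixing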
* = called active by the depositor.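 How the source made its calls, unless noted: active means mean above 30%; inconclusive means self-fluorescent; inactive means the rest.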 An excerpt; count on the stated rates, not on these rows.

Screening CCOc1cc2oc(=O)c3c(c2cc1Cl)CCC3 returned FPRL1 ligand -10, VCAM-1 down imaging inactive, FPR ligand -14, VCAM-1 down inactive and VCAM-1 up imaging inactive.
For Cc1ccc(N(CC(=O)NCc2ccc3c(c2)OCO3)S(=O)(=O)c2c(C)noc2C)cc1 the results were FPRL1 ligand -5 and FPR ligand -2.
CCCc1cc(=O)oc2cc(C)cc(OC(=O)c3ccco3)c12 was read as FPRL1 ligand -1, VCAM-1 down imaging inactive, FPR ligand 5, VCAM-1 down inactive and VCAM-1 up imaging inactive.
O=C(CSc1nc2ccccc2c(=O)n1CCC(=O)N1CCCCC1)NCc1ccccc1 was read as FPRL1 ligand -5, VCAM-1 down imaging inactive, FPR ligand 4, VCAM-1 down inactive and VCAM-1 up imaging inactive.
For N#CC1=C(N)OC2=C(C(=O)CCC2)C1CCc1ccccc1 (stereo unspecified) the results were FPRL1 ligand 0, VCAM-1 down imaging inactive, FPR ligand -1, VCAM-1 down inactive and VCAM-1 up imaging inactive.
CCOC(=O)C1CCN(C(=O)c2n[nH]c(=O)c3ccccc23)CC1 was read as FPRL1 ligand -2 and FPR ligand -4.
`S=C1SCN(CCN2CCOCC2)CN1Cc1ccccc1` gave FPRL1 ligand 4 and FPR ligand -1.
C[C@H](NC(=O)Nc1ccccc1F)C(=O)O was read as FPRL1 ligand 7, VCAM-1 down imaging inactive, FPR ligand 6, VCAM-1 down inactive and VCAM-1 up imaging inactive.
`Cc1cc(C)cc(NC(=O)C2CCCN(c3nccc(C)n3)C2)c1` (stereo unspecified) gave FPRL1 ligand -4, VCAM-1 down imaging inactive, FPR ligand 1, VCAM-1 down inactive and VCAM-1 up imaging inactive.
Screening CC(C)Sc1nc(N2CCCC2)c2c(c1C#N)CC(C)(C)OC2 returned FPRL1 ligand -1, VCAM-1 down imaging inactive, FPR ligand -6, VCAM-1 down inactive and VCAM-1 up imaging inactive.

An excerpt from above in order of SMILES length, high to low.
Screening CC(C)Sc1nc(N2CCCC2)c2c(c1C#N)CC(C)(C)OC2 returned FPRL1 ligand -1, VCAM-1 down imaging inactive, FPR ligand -6, VCAM-1 down inactive and VCAM-1 up imaging inactive.
For N#CC1=C(N)OC2=C(C(=O)CCC2)C1CCc1ccccc1 (stereo unspecified) the results were FPRL1 ligand 0, VCAM-1 down imaging inactive, FPR ligand -1, VCAM-1 down inactive and VCAM-1 up imaging inactive.
Screening CCOc1cc2oc(=O)c3c(c2cc1Cl)CCC3 returned FPRL1 ligand -10, VCAM-1 down imaging inactive, FPR ligand -14, VCAM-1 down inactive and VCAM-1 up imaging inactive.

More entries follow.
Screening C=CCSc1nnc(Cc2cc(=O)[nH]c(=O)[nH]2)n1-c1cc(C)ccc1C returned FPRL1 ligand 12 and FPR ligand 9.
`COc1cc(NC(=O)c2cc(C(C)C)on2)cc(OC)c1OC` gave FPRL1 ligand 8 and FPR ligand 6.
`CCN(CC)CCN1C(=O)C(=O)/C(=C(/O)c2ccc(Cl)cc2)C1c1ccncc1` (stereo unspecified) gave FPRL1 ligand -5 and FPR ligand -8.
Screening C=CCn1cc(C(=O)NCc2ccco2)c(=O)c2cc(S(=O)(=O)N3CCCCCC3)ccc21 returned FPRL1 ligand 1 and FPR ligand -3.
Screening O=C(CNC(=O)c1cccs1)NCCN1CCN(Cc2ccccc2)CC1 returned FPRL1 ligand 1 and FPR ligand -2.
For O=P(O)(O)C(O)C(F)(F)C(F)(F)C(F)(F)C(F)F (stereo unspecified) the results were FPRL1 ligand 0, VCAM-1 down imaging inactive, FPR ligand -3, VCAM-1 down inactive and VCAM-1 up imaging inactive.
For COC(=O)c1ccnc(/C=N/O)c1 the results were FPRL1 ligand 2, VCAM-1 down imaging inactive, FPR ligand 7, VCAM-1 down inactive and VCAM-1 up imaging inactive.
`COc1ccc(S(=O)(=O)NC(C)C(=O)Nc2cccc(C(C)=O)c2)cc1` (stereo unspecified) gave FPRL1 ligand 47*, VCAM-1 down imaging inactive, FPR ligand 11, VCAM-1 down inactive and VCAM-1 up imaging inactive.
Screening O=C(CN1C(=O)CCS(=O)(=O)c2ccccc21)Nc1cccc(Cl)c1 returned FPRL1 ligand 7 and FPR ligand 12.
For COc1cccc(NC(=O)CN(c2ccc(C)cc2)S(=O)(=O)c2c(C)nn(C)c2C)c1 the results were FPRL1 ligand 0 and FPR ligand -1.

Brought forward from above: 3 entries, followed by the next part.
`COc1ccc(S(=O)(=O)NC(C)C(=O)Nc2cccc(C(C)=O)c2)cc1` (stereo unspecified) gave FPRL1 ligand 47*, VCAM-1 down imaging inactive, FPR ligand 11, VCAM-1 down inactive and VCAM-1 up imaging inactive.
Screening O=C(CN1C(=O)CCS(=O)(=O)c2ccccc21)Nc1cccc(Cl)c1 returned FPRL1 ligand 7 and FPR ligand 12.
For COc1cccc(NC(=O)CN(c2ccc(C)cc2)S(=O)(=O)c2c(C)nn(C)c2C)c1 the results were FPRL1 ligand 0 and FPR ligand -1.
Screening CCOc1ccc(CNC(=O)C2CCCN(S(C)(=O)=O)C2)cc1OC (stereo unspecified) returned FPRL1 ligand 0, VCAM-1 down imaging inactive, FPR ligand -1, VCAM-1 down inactive and VCAM-1 up imaging inactive.
For CCc1ccc(N/C(SCc2cccc(F)c2)=C(/C#N)C(=O)NCc2ccco2)cc1 the results were FPRL1 ligand -2 and FPR ligand 4.
`O=C(O)CSCc1cnn(-c2ccccc2)c1-n1cccc1` gave FPRL1 ligand -7 and FPR ligand 4.
O=C(c1ccc2c(c1)[nH]c(=S)n1c3ccccc3nc21)N1CCN(c2ncccn2)CC1 was read as FPRL1 ligand -6, VCAM-1 down imaging inactive, FPR ligand -3, VCAM-1 down inactive and VCAM-1 up imaging inactive.
For CCN(CCCNC(=O)C1CCC(=O)N1C1CCCC1)c1cccc(C)c1 (stereo unspecified) the results were FPRL1 ligand -7 and FPR ligand -4.
Screening CCOC(=O)C1CCCCN1C(=O)CCc1c(C)nc2cc(-c3ccccc3)nn2c1C (stereo unspecified) returned FPRL1 ligand -3 and FPR ligand 16.
Screening Cc1nc2ccccn2c1/C(O)=C1\C(=O)C(=O)N(CCCN(C)C)C1c1ccc(Cl)cc1 (stereo unspecified) returned FPRL1 ligand 3 and FPR ligand 0.
Screening Cc1cc(C(=O)Nc2nc3c(s2)CCCC3)cs1 returned FPRL1 ligand 3, VCAM-1 down imaging inactive, FPR ligand 8, VCAM-1 down inactive and VCAM-1 up imaging inactive.
`CC(=O)Nc1ccc(-c2cc3ccccc3o2)cc1` gave FPRL1 ligand -6, VCAM-1 down imaging inactive, FPR ligand -3, VCAM-1 down inactive and VCAM-1 up imaging inactive.
Screening COc1ccc(CCNC(=O)Cn2cnc3c(nnn3Cc3ccccc3F)c2=O)cc1OC returned FPRL1 ligand 2 and FPR ligand -8.
For Cc1ccc2c(c1)N(CCCC(=O)NCCCN1CCCC1=O)C(=O)CO2 the results were FPRL1 ligand -2 and FPR ligand 1.
Screening Cc1ccc2c(c1)NC(=O)C(CC(=O)NC1CCCCC1C)O2 (stereo unspecified) returned FPRL1 ligand 4, VCAM-1 down imaging inactive, FPR ligand 7, VCAM-1 down inactive and VCAM-1 up imaging inactive.
CCCOc1ccc(C2C(C(=O)c3ccco3)=C(O)C(=O)N2CCN2CCOCC2)cc1OC (stereo unspecified) was read as FPRL1 ligand -4 and FPR ligand 20.
For Cn1c(Cl)nc2ccccc21 the results were FPRL1 ligand -4, VCAM-1 down imaging inactive, FPR ligand 4, VCAM-1 down inactive and VCAM-1 up imaging inactive.
COc1ccc(-c2noc(N(C)CC(=O)Nc3cccc(C(F)(F)F)c3)n2)cc1 was read as FPRL1 ligand -2 and FPR ligand -4.
`O=C(c1cccc(Cl)c1)N1CCN(C2CCCCCC2)CC1` gave FPRL1 ligand 0 and FPR ligand -13.
CCN(CCCn1c(=S)[nH]c2ncccc2c1=O)c1ccccc1 was read as FPRL1 ligand -1 and FPR ligand 2.
`Cc1csc2ncc(C(=O)Nc3ccccc3Cl)c(=O)n12` gave FPRL1 ligand -15, VCAM-1 down imaging inactive, FPR ligand -4, VCAM-1 down inactive and VCAM-1 up imaging inactive.
`O=c1cc(N2CCC3(CC2)OCCO3)[nH]c(=O)n1C1CCCCC1` gave FPRL1 ligand 5 and FPR ligand 2.
Screening CCOC(=O)C1CCCN(C(=O)c2ccc3c(c2)NC(=O)C(N2CCOCC2)S3)C1 (stereo unspecified) returned FPRL1 ligand -3 and FPR ligand -4.
`O=C(CN1C(=O)NC2(CCCCCC2)C1=O)N1CCC(Cc2ccccc2)CC1` gave FPRL1 ligand -5, VCAM-1 down imaging inactive, FPR ligand -5, VCAM-1 down inactive and VCAM-1 up imaging inactive.
Screening O=C1C2CCCN2C(c2ccccc2)N1c1nccs1 (stereo unspecified) returned FPRL1 ligand -6 and FPR ligand -2.
`COc1ccc(OC)c(CNC(=O)COc2cc(=O)n(C)c3ccccc23)c1` gave FPRL1 ligand 0, VCAM-1 down imaging inactive, FPR ligand -2, VCAM-1 down inactive and VCAM-1 up imaging inactive.
Screening O=C(NCCc1ccc(Cl)cc1)C1CCN(S(=O)(=O)c2cccc3nonc23)CC1 returned FPRL1 ligand 4 and FPR ligand 7.
Screening CC(C)(C)n1ncc2c(=O)n(CC(=O)N3CCCc4ccccc43)cnc21 returned FPRL1 ligand -1 and FPR ligand 1.
`CC(=O)NCC(=O)N(c1c(C)n(C)n(-c2ccccc2)c1=O)C1(C(=O)NC2CCCC2)CCCCC1` gave FPRL1 ligand -6 and FPR ligand 1.
Screening N#Cc1ccccc1NC(=O)Nc1cccs1 returned FPRL1 ligand 1 and FPR ligand 3.
`COc1cccc(CNC(=O)c2nnn(CC(=O)Nc3ccc(C)c(C)c3)c2N)c1` gave FPRL1 ligand 0 and FPR ligand 4.
For O=c1c2cccnc2[nH]c(=S)n1CCCN1CCN(c2ccc(F)cc2)CC1 the results were FPRL1 ligand -4 and FPR ligand 1.
For CCN1CCN(Cc2c(O)ccc3c(=O)c(-c4ccc(OC)c(OC)c4)c(C)oc23)CC1 the results were FPRL1 ligand -9 and FPR ligand -10.
`CC(C)CN1C(=O)NC(NC(=O)c2cccs2)(C(F)(F)F)C1=O` (stereo unspecified) gave FPRL1 ligand -1 and FPR ligand -4.
Screening CC1CC(=O)N(CC(=O)NCc2ccc3c(c2)OCO3)c2ccccc2S1 (stereo unspecified) returned FPRL1 ligand -3 and FPR ligand -5.
CCN1CCN(C(=O)C(NS(=O)(=O)c2ccc3nc(C)sc3c2)C(C)C)CC1 (stereo unspecified) was read as FPRL1 ligand 0 and FPR ligand 0.
`CCc1nnc(NC(=O)c2ccc(S(=O)(=O)N(CCOC)CCOC)cc2)o1` gave FPRL1 ligand 2 and FPR ligand 0.
Screening COc1cccc(NC(=O)c2nc3nc(C)cc(C(F)F)n3n2)c1 returned FPRL1 ligand -8, VCAM-1 down imaging inactive, FPR ligand -3, VCAM-1 down inactive and VCAM-1 up imaging inactive.
`O=C(Nc1cccnc1)c1cc(-c2cccs2)on1` gave FPRL1 ligand 2 and FPR ligand 4.
COc1ccccc1NC(=O)CN1CCN(CC(=O)Nc2ccccc2F)CC1 was read as FPRL1 ligand -6 and FPR ligand -1.
`CCOC(=O)N1CCN(C(=O)CCn2c(=S)[nH]c3cc(OCC)c(OCC)cc3c2=O)CC1` gave FPRL1 ligand 3 and FPR ligand 2.
For CCOc1ccc(-n2c(=S)sc3c(=O)[nH]c(SCC(=O)NCc4ccco4)nc32)cc1 the results were FPRL1 ligand -4 and FPR ligand 1.
`CC(=O)c1cccc(NC(=O)C2CCCN2S(=O)(=O)c2cccc3cccnc23)c1` (stereo unspecified) gave FPRL1 ligand 15 and FPR ligand 9.
Screening CN1CCN(C(=O)Cn2c(=O)oc3cc(S(=O)(=O)NCc4ccccc4)ccc32)CC1 returned FPRL1 ligand -1 and FPR ligand 0.
Screening COc1ccc(CCNC(=O)c2ccn[nH]2)cc1OC returned FPRL1 ligand -3 and FPR ligand -2.
O=C(CN1CCCC1)Nc1ccc(NC(=O)Nc2ccccc2)cc1 was read as FPRL1 ligand 3, VCAM-1 down imaging inactive, FPR ligand -5, VCAM-1 down inactive and VCAM-1 up imaging inactive.
For COc1ccc(S(=O)(=O)Nc2cccc(C)n2)c2ccccc12 the results were FPRL1 ligand 6, VCAM-1 down imaging inactive, FPR ligand 0, VCAM-1 down inactive and VCAM-1 up imaging inactive.
`CC1(C)CC(=O)c2cc(OCC(=O)NCCN3CCCc4ccccc43)ccc2O1` gave FPRL1 ligand 2 and FPR ligand -3.
For COc1ccccc1CNC(=O)CCn1c(=O)sc2ccccc21 the results were FPRL1 ligand 11 and FPR ligand 2.
Cc1nc2cccc(C(=O)NCc3ccccc3)c2o1 was read as FPRL1 ligand -4 and FPR ligand 13.
COc1ccc(C2C=C(c3ccc(Br)s3)Nc3ncnn32)cc1OC (stereo unspecified) was read as FPRL1 ligand -8 and FPR ligand -9.

Screens deposited in PubChem by several laboratories.
